KCNQ2 inh = KCNQ2 potassium channel inhibitors, primary screen, cell-based, CHO-K1, FluxOR thallium flux, B-score (AID 2156) | O88943 | B-score at 10 µM | hit rate 1.1% among 310,000 | 20 min; active compounds read low; only compounds with negative scores are shown here; some inactives read as strong as hits;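 active means fluorescence ratio B-score at most minus 3 library SDs, with starting brightness B-score within 2 library SDs, cut at about -5.5 in these data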
Target sequence (O88943 whole entry, looked up): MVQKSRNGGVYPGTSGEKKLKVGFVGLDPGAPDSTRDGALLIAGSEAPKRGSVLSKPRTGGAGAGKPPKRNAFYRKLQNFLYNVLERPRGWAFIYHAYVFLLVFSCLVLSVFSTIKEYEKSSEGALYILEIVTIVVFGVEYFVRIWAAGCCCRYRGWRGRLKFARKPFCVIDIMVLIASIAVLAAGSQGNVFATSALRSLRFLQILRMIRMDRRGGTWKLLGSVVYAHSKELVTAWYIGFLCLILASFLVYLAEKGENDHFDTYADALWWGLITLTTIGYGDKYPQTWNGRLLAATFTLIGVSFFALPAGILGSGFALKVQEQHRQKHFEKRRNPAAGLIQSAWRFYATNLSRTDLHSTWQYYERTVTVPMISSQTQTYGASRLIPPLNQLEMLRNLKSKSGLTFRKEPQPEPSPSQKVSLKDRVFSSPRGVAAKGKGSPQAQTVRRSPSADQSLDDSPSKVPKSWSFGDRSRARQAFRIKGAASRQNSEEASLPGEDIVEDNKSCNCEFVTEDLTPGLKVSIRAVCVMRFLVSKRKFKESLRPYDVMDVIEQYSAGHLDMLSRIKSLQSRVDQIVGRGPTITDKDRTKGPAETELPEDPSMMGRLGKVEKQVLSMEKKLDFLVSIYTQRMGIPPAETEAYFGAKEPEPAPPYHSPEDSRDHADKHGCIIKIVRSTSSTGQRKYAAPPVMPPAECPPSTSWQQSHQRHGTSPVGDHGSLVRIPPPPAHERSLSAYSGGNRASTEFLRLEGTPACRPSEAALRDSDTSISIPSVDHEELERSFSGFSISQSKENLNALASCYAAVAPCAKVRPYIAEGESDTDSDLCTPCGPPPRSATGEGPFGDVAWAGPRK
KCNQ2 inh baseline = also measured in KCNQ2 inh; calls as there; B-score; measured here: initial fluorescence intensity artifact check;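 brightness before thallium and not channel activity; 0 = typical well and far values either way flag optical interference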
Starred values were filed as active, the others as inactive; i = inactive; & = joins results of further samples. These rows are one share of the data; count on the stated rates, not on these rows.

Sequence of screens: KCNQ2 inh baseline, KCNQ2 inh
> COc1ccc2c(=O)c3c(=O)n(Cc4ccco4)c(-c4ccccc4)nc3oc2c1
 : -0.69, i
> C=CCNC(=O)NS(=O)(=O)c1ccc(C)cc1
 : 2.04, i
> O=c1c2ccccc2nc2n1CC/C2=C/N1CCN(c2cccc(C(F)(F)F)c2)CC1
 : -1.07, i
> Cc1cc2oc(=O)cc(Cn3ncc(Cl)c(Cl)c3=O)c2cc1Cl
 : -3.29, i
> Cc1cc(C)n(C(=O)c2ccc(C)c(S(=O)(=O)N3CCCCC3)c2)n1
 : -0.64, i
> CCc1ccccc1NC(=O)COc1ccc2c(c1)OCO2
 : 0.75, i
> O=C(Nn1c(C2CCCCC2)nc2ccccc2c1=O)c1ccc(Cl)c([N+](=O)[O-])c1
 : 0.06, i
> COc1ccc2nc(N/C(N)=N/C(=S)Nc3ccccc3)nc(C)c2c1
 : 1.61, i
> COc1ccc(C2C(=O)N(C3CCCCC3)CC(=O)N2Cc2ccco2)cc1 (stereo not drawn)
 : -0.52, i
> Cc1nn2c(N3CCN(C)CC3)cc(C(C)(C)C)nc2c1-c1ccccc1
 : 0.01, i

The closing 2 entries of the section before open the next one:
Sequence of screens: KCNQ2 inh baseline, KCNQ2 inh
> COc1ccc(C2C(=O)N(C3CCCCC3)CC(=O)N2Cc2ccco2)cc1 (stereo not drawn)
 : -0.52, i
> Cc1nn2c(N3CCN(C)CC3)cc(C(C)(C)C)nc2c1-c1ccccc1
 : 0.01, i
> CCOC(=O)C1(CC2CC2)CCN(S(=O)(=O)/C=C/c2ccccc2)CC1
 : -1.07, i
> Cc1ccc(S(=O)(=O)Oc2ccc(/C=C3/N=C(c4ccccc4)OC3=O)cc2)cc1
 : -1.87*, -7.43*
> CC(=O)N1N=C(c2ccc(Cl)cc2)CC1c1ccco1 (stereo not drawn)
 : 0.68, i
> Cc1ccc(CNC(=O)CS(=O)(=O)Cc2nc(-c3ccccc3F)oc2C)cc1
 : 0.8, i
> O=C(NNC(=O)c1ccc([N+](=O)[O-])cc1)c1ccc(Br)cc1
 : -0.42, i
> O=C(Nc1ccc(F)cc1)C1C2CCC3C(CCC21)C3(Cl)Cl (stereo not drawn)
 : -0.58, i
> O=C(NCC1CCCO1)c1cc2cc(F)ccc2[nH]1 (stereo not drawn)
 : 0.77, i
> O=C(c1ccco1)N1CCN(C(=O)C2CCCN(S(=O)(=O)c3cccc4nsnc34)C2)CC1 (stereo not drawn)
 : 0.87, i
> CCC(CC)=NNC(=O)c1ccccc1OCc1ccc(F)cc1
 : -0.2, i
> O=C(N/C(=C/C=C/c1ccccc1)C(=O)N1CCOCC1)c1ccccc1Cl
 : 0.46, i
> CCN(CC)C(=O)c1csc(Nc2cccc3ccccc23)n1
 : -0.82, i
> O=C(Nc1ccc(C(F)(F)F)cc1Cl)c1ccc(Cn2cc(Br)cn2)o1
 : 1.24, i
> COc1ccccc1CNC(=O)c1cc(C)nc2ccccc12
 : -0.8, i
> CCOC(=O)c1ccc(N2C(=O)C(CC(=O)NC)N(CCc3ccc(OC)c(OC)c3)C2=S)cc1 (stereo not drawn)
 : 2.8, i
> COc1ccc(C)cc1NC(=O)NC(C)c1ccc2c(c1)OCO2 (stereo not drawn)
 : 3.25, i
> O=C(NCc1ccc(F)cc1)c1cccc(NC2=NC3CS(=O)(=O)CC3S2)c1 (stereo not drawn)
 : -0.23, i
> CC(C)(C)c1ccc(C(=O)NCCCn2ccnc2)cc1
 : 0.29, i
> O=C(CNC(=O)c1ccco1)OCc1cccc(Cl)c1
 : 2.67, i
> CCOc1nc(N2CCOCC2)nc(N2CCOCC2)n1
 : -2.92, i
> COCCNC(=O)CN1N=C(c2ccc(C)cc2)CCC1=O
 : 0.34, i
> COC(=O)c1c(S(N)(=O)=O)c2ccccc2n1C
 : -0.49, i
> CCCCCCOc1ccc(N2C(=O)CC(SC(=NCC)NCC)C2=O)cc1 (stereo not drawn)
 : -0.62, i
> O=C(CN(c1ccccc1)S(=O)(=O)c1ccc(F)cc1)NC1CCCCCC1
 : 0.01, i
> CCN(CC)CCSc1nnc2c3ccccc3n(Cc3ccccc3)c2n1
 : -1.15, i
> Cc1ccccc1N1CCN(C(=O)C2CCCCC2)CC1
 : 0.61, i
> CC(C)N(C(=O)c1ccccc1-c1ccccc1)C(C)C
 : -0.27, i
> CCC(Oc1ccccc1OC)C(=O)Nc1ccc2c(c1)OCCO2 (stereo not drawn)
 : 2.35, i
> Cc1ccc(S(=O)(=O)NC2CCCCCCC2)cc1
 : 0.03, i
> COc1ccc(C2(C)NC(=O)N(CC(=O)Nc3ccc(Br)cc3F)C2=O)cc1OC (stereo not drawn)
 : -0.02, i
> Cc1nn(C(C)C(=O)NCc2ccccc2)c(C)c1[N+](=O)[O-] (stereo not drawn)
 : -0.96, i
> CCCOC1CCCN(C(=O)CCCn2nnnc2CN2CCOCC2)C1 (stereo not drawn)
 : 0.7, i
> O=C(CSc1ccccc1)Nc1ccc(N2CCN(c3ccccc3)CC2)c(F)c1
 : -1.76, i
> Cc1ccc(C)n1NC(=O)c1ccc(O)cc1
 : -0.71, i
> O=C(CSc1nc2ccccc2s1)NCC1CCCO1 (stereo not drawn)
 : 2.33, i
> Cc1cccc(C)c1NC(=O)CNC(=O)Cc1ccccc1[N+](=O)[O-]
 : -1.19, i
> CCOC(=O)C1CCN(C(=O)c2sccc2Cl)CC1
 : 0.23, i
> Cn1cc(Br)c(-c2cccc(N3C(=O)CCCC3=O)c2)n1
 : -2.87, i
> CCCCOc1ccc(C(=O)N2CCN(c3ncccn3)CC2)cc1
 : -2.29, i
> Cc1nc(NC(=O)CSc2nccn2C)sc1C(=O)N(C)C
 : 0.47, i
> CC1CC(C)CN(C(=O)CSc2nnc(-c3ccc(Cl)s3)o2)C1 (stereo not drawn)
 : 0.95, i
> Cc1c(NS(=O)(=O)c2ccc(N3CCN(C)CC3)c([N+](=O)[O-])c2)c(=O)n(-c2ccccc2)n1C
 : 1.52, i
> Cc1ccc(CN2CCC(C(=O)Nc3ccc(Oc4cccnc4)cc3)CC2)cc1
 : 1.46, i
> Cc1cc(/C=N/N2CCN(C)CC2)c(C)n1-c1ccc(Cl)cc1
 : -0.13, i
> O=C(c1ccc(NC2=NC3CS(=O)(=O)CC3S2)cc1)N1CCN(c2ccccc2F)CC1 (stereo not drawn)
 : -0.52, i
> CCCCn1c(N)c(N(CC(C)C)C(=O)c2ccc3c(c2)NC(=O)C(C)S3)c(=O)[nH]c1=O (stereo not drawn)
 : -0.08, i
> CCc1c(C)nc(N2CCN(c3cccc(OC)c3)CC2)[nH]c1=O
 : -0.88, i
> COc1ccc(NC(=O)Cn2nnc(-c3ccccc3NC(=O)c3ccco3)n2)cc1
 : 1.24, i
> O=C(NC1CCCN(Cc2ccccc2F)C1)c1cccs1 (stereo not drawn)
 : 0.46, i
> Cc1cccc(NC(=S)Nc2ccc(N3CCOCC3)cc2)c1C
 : 1.22, i
> O=c1c2ccccc2c(C=Nc2cccc(S(=O)(=O)NC3=NCCCCC3)c2)c(O)n1Cc1ccccc1
 : 1.14, i

Continuation:
Sequence of screens: KCNQ2 inh baseline, KCNQ2 inh
> CCN(CC)CCNc1nc2cc(OC)c(OC)cc2c2nc(-c3ccccc3)nn12
 : -1.37, i
> Cc1cccc(NC(=O)C2Cc3ccccc3O/C2=N\O)c1 (stereo not drawn)
 : -0.84, i
> COC(=O)c1cccc(NC(=O)CSc2nnc(C)n2Cc2ccccc2)c1
 : 1.33, i
> CC(C)N(Cc1nccn1C)C(=O)CC1C(=O)NCCN1Cc1ccc(F)c(F)c1 (stereo not drawn)
 : 0.57, i
> COc1ccc(OC)c(CNC(=O)CCSCc2ccc(F)cc2Cl)c1
 : -2.4, i
> COc1ccc(NC(=O)CCC(=O)OCC(=O)c2ccc(Oc3ccc([N+](=O)[O-])cc3)cc2)cc1
 : 3.45, i
> Cc1ccc(-c2noc(CN(C(=O)CCCCCN3C(=O)c4ccccc4C3=O)C(C)C)n2)cc1
 : -1.33, i
> COc1ccccc1NC(=O)/C=C\C(=O)O
 : 0.78, i
> CC(C)=CCC(C)(C)C1OCCN1C(=O)Nc1ccccc1 (stereo not drawn)
 : 2.57, i
> COc1ccc(C(C[N+](=O)[O-])c2c(-c3ccccc3)cc3ccccn23)c(OC)c1 (stereo not drawn)
 : 1.15, i
> Brc1ccc2[nH]c3nc(SCCN4CCOCC4)nnc3c2c1
 : 0.03&0.12, i
> CCCCNC(=O)C1CCC(CNc2c(N3CCC(C)CC3)c(=O)c2=O)CC1 (stereo not drawn)
 : -1.61, i
> CC(=O)Nc1ccc(S(=O)(=O)Nc2cc(C)ccn2)cc1
 : 0.51, i
> COc1ccc([N+](=O)[O-])cc1Nc1c2ccccc2nc2ccccc12
 : 0.25, i
> CCOc1ccc(-c2cccc(NS(=O)(=O)c3ccccc3[N+](=O)[O-])c2)nn1
 : 1.21, i
> CCCNCc1nnc(-c2ccccc2Cl)o1
 : -0.01, i
> CCN(CC)S(=O)(=O)c1ccc(NS(=O)(=O)c2ccc(O)c([N+](=O)[O-])c2)cc1
 : 0.17, i
> CCn1c(SCC(=O)Nc2ccc3c(c2)OCO3)nnc1C(C)C
 : 0.53, i
> O=C(NCCc1cccc(F)c1)C1CCC(=O)N(CCCc2ccccc2)C1 (stereo not drawn)
 : -1.34, i
> CSc1nc(C)cc(Oc2ccccc2)n1
 : -0.36, i
> Cn1cnc(S(=O)(=O)Nc2ccc3c(c2)OCCO3)c1
 : 2.1, i
> Cc1ccc(C)c(-c2nc3cc(N)ccc3o2)c1
 : -1.73, i
> COc1ccc(/C=N/NC(=O)COc2ccccc2-c2ccccc2)cc1
 : -0.54, i
> Cn1cccc1-c1nc2ccccc2n1Cc1ccccc1
 : -0.37, i
> Cc1ccc(-c2nnc3ccc(SCC(=O)N4CCCc5ccccc54)nn23)cc1
 : 1.7, i
> O=S(=O)(NCC1CCCO1)c1ccc(S(=O)(=O)N(Cc2ccc(F)cc2)Cc2ccccn2)cc1 (stereo not drawn)
 : -2.64, i
> O=C(NCCc1ccccc1)c1cc(-c2ccco2)on1
 : -1.22, i
> O=C(C[n+]1ccccc1)Nc1ccc(Cl)c([N+](=O)[O-])c1
 : -0.5, i
> Cn1ccc(C(=O)OCC(=O)Nc2ccccc2)n1
 : -1.9, i
> CC(=O)Nc1nc2ccc(Br)cc2s1
 : 0.67, i

4 of the compounds above, field by field.
structure: COc1ccc(/C=N/NC(=O)COc2ccccc2-c2ccccc2)cc1
- KCNQ2 inh baseline = -0.54
- KCNQ2 inh = i
structure: Cn1cccc1-c1nc2ccccc2n1Cc1ccccc1
- KCNQ2 inh baseline = -0.37
- KCNQ2 inh = i
structure: Cc1ccc(-c2nnc3ccc(SCC(=O)N4CCCc5ccccc54)nn23)cc1
- KCNQ2 inh baseline = 1.7
- KCNQ2 inh = i
structure: O=S(=O)(NCC1CCCO1)c1ccc(S(=O)(=O)N(Cc2ccc(F)cc2)Cc2ccccn2)cc1 (stereo not drawn)
- KCNQ2 inh baseline = -2.64
- KCNQ2 inh = i

Other structures follow:
Sequence of screens: KCNQ2 inh baseline, KCNQ2 inh
> COc1ccc2oc(C(=O)OCC(=O)NC3CCCCC3)c(C)c2c1
 : 0.04, i
> CC(Nc1nc(Nc2ccc(F)cc2)nc(SCC(N)=O)n1)c1ccccc1 (stereo not drawn)
 : -2.28, i
> O=C(CCl)N(Cc1cccc([N+](=O)[O-])c1)c1cccc(Cl)c1
 : -0.43, i
> CC(=O)Oc1ccc(N2C(=O)CC(N3CCOCC3)C2=O)cc1 (stereo not drawn)
 : -0.93, i
> CC(C)/C(C=O)=C(/NC1CCCCC1)c1ccccc1
 : -0.07, i
> Cc1ccc(S(=O)(=O)N2CCC(C(=O)N3CCC[C@H]3C(=O)NCC(C)C)CC2)cc1
 : -1.32, i
> Cc1ccccc1NC(=O)Cn1c(=O)n(Cc2ccccc2)c(=O)c2c(C)c(C)sc21
 : 0.28, i
> CC(=O)Nc1cccc(C(=O)N(Cc2ccccc2)Cc2ccccc2)c1
 : 0.31, i
> CCOc1cc(/C=N/NC(N)=O)cc(Br)c1OCc1ccccc1F
 : 1.55, i
> Brc1ccc(OCCOc2cccc3cccnc23)cc1
 : -0.21, i
> CC1=C(C(=O)OCc2ccccc2)C(c2ccc3ccccc3c2)NC(=O)N1CCCCCC(=O)O (stereo not drawn)
 : 0.82, i
> CC(C)CN(C(=O)COc1cccc(-n2cnnn2)c1)C1CCS(=O)(=O)C1 (stereo not drawn)
 : -0.13, i
> CCN(C(=O)CN1CCN(c2ccc(OC)cc2)CC1)c1c(N)n(Cc2ccccc2)c(=O)[nH]c1=O
 : -0.6, i
> O=P(O)(C(O)c1ccccc1)C(O)c1ccccc1 (stereo not drawn)
 : 1.47, i
> Cn1c(=O)c(C(=O)CN2CC(=O)Nc3ccccc32)c(N)n(Cc2ccccc2)c1=O
 : 0.93, i
> O=C(NCC1CCCO1)c1cc2c([nH]c3ccccc32)c(-c2cccc(Cl)c2)n1 (stereo not drawn)
 : -0.18, i
> COc1ccccc1/C=N/NC(=O)c1nnn(-c2nonc2N)c1CN(C)c1ccccc1
 : 0.55, i
> CC(C)CC(=O)N1CCN(S(C)(=O)=O)CC1
 : -0.88, i
> O=C(Cc1ccccc1)N1CCN(c2ccccc2F)CC1
 : 1.1, i
> COc1ccc(-c2ccc(NC(=O)c3ccc(Br)o3)cc2)nn1
 : -0.02, i
> O=C1N=C(N2CCCCC2)S/C1=C\c1ccc(Br)cc1
 : 1.56, i
> COc1ccc(CN2C(=O)c3ccccc3C2=O)cc1C(=O)Nc1ccccc1N1CCOCC1
 : -1.16, i
> CC1(C)CC(=O)C2=C(C1)NC(=O)CC2c1ccc(N(CCC#N)CCC#N)cc1 (stereo not drawn)
 : 2.44, i
> Cc1cc(C)c2nc(-c3ccccn3)cc(C(=O)Nc3ccc(S(=O)(=O)Nc4onc(C)c4C)cc3)c2c1
 : -0.72, i
> CCOC(=O)C1(Cc2cccc(Cl)c2)CCCN(C(=O)CCOC)C1 (stereo not drawn)
 : 0.73, i

Bioassay records (PubChem BioAssay)
